FGF22 binding – shifts melting point of recombinant human FGF22; recombinant FGF22 thermal shift, SYPRO orange fluorescence; percent of sucrose octasulfate shift, DMSO zero; actives 1.5% (n = 340,000); Q9HCT0; calls only at 9.99 µM; AID 651658;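 active means melting point raised past a set limit in the mean and every replicate; three in four hits are not shown here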
Target sequence (Q9HCT0 whole entry, looked up): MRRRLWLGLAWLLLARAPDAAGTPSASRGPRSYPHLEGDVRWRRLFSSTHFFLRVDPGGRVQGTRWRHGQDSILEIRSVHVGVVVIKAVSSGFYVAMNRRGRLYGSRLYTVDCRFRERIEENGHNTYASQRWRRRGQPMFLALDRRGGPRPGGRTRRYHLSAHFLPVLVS
LANA-H2A inh – blocks KSHV LANA binding to histone H2A/H2B. Q9QR71. cell-free LANA-H2A/H2B peptide, fluorescence polarization. inhibition, % (concentration not given with the values). actives 0.6% (n = 320,000); in the data active means inhibition mostly above about 10%, no sharp cut-off; inactive means mostly below about 6.7%;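 further: stock transfer was 7.5 nL into about 10 µL; 0% = median of vehicle wells and 100% = median of positive control wells; one replicate is shown; the record names a cut of 25% in any replicate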
ALR inh – blocks human ALR sulfhydryl oxidase activity. P55789. purified ALR, DTT oxidation, H2O2 HRP-luminol luminescence. inhibition, % (no concentration beside the values). actives 3.8% (n = 290,000). AID 485317;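 active means mean and each replicate at 75% or more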;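 further: stock transfer was 7.5 nL into about 7.5 µL; 0% = neutral wells and 100% = wells with inactivated enzyme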
HNF4A DNA FP – change in binding of human HNF4 alpha to DNA; AID 1224865; P41235; activity change, % at 10 µM; actives 0.3% (n = 360,000); HNF4a-FITC DNA binding, fluorescence polarization, 1 h; in the data active means activity change above about 30%, passing the limit was not always enough;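 further: controls were the assay level and a saturating level of protein; the project sought stronger binding though the title names inhibitors; some compounds called inactive have numbers as strong as hits; positive values seem to mean higher polarization but the record does not say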
E coli growth – inhibitors of Escherichia coli growth; actives 0.21% (n = 330,000); OD600 absorbance (test concentration not listed); OD600, 23 h; hits give low values; AID 1053175;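 active means OD600 absorbance below the run mean of sample wells minus 3.6 SD, in any replicate, cut at about 0.56 in these data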;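 further: stock transfer was 300 nL into about 60 µL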
B2AR ag – human beta-2 adrenergic receptor agonism by FAP | Am2.2-beta2AR cells, FAP receptor internalization, flow cytometry; reference of the scale not given here | response, % (concentration not given with the values) | actives 0.43% (n = 340,000);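 active means response above a set limit, near 3 SD of response in nonfluorescent compounds, cut at about 42% in these data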;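 further: stock transfer was 100 nL into about 11 µL; a reference agonist was the positive control; negative values mostly stem from fluorescent compounds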
Target sequence (P07550 whole entry, looked up): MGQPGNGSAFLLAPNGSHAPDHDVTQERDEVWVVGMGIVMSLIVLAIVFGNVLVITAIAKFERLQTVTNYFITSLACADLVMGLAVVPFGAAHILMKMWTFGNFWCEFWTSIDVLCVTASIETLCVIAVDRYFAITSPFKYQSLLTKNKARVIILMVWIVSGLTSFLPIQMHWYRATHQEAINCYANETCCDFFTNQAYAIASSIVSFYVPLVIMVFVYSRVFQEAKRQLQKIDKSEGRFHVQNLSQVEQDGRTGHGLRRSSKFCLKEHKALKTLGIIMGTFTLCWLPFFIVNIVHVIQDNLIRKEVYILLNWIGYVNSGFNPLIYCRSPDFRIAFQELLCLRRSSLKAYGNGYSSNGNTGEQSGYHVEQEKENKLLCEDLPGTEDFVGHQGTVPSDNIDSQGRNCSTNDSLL
UCH37 inh – blocks the human deubiquitinase UCH37. actives 0.33% (n = 330,000). purified proteasome/UCH37, Ub-AMC cleavage fluorescence. inhibition, % (concentration not given with the values);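 active means mean of two replicates above 20%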;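 further: 0% = compound-free wells with enzyme and 100% = wells lacking proteasome; stock transfer was 100 nL into about 20 µL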
Target sequence (Q9Y5K5 whole entry, looked up): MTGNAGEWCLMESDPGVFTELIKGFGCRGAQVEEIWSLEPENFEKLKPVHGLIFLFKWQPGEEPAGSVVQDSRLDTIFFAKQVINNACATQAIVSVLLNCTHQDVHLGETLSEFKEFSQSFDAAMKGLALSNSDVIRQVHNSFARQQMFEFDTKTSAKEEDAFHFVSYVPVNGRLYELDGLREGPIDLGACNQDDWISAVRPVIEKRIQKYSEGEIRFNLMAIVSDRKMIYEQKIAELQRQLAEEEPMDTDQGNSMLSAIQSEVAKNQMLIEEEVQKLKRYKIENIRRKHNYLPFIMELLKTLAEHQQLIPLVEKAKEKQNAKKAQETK
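System: Proteasome-associated human UCH37 deubiquitinase; Input: 0.15 nM proteasome in added enzyme buffer; Also added: Ub-AMC substrate from 1 µM stock; Incubation: 30 min compound-proteasome preincubation then 25 min substrate reaction, room temperature; Detection: fluorescence, ex 355 nm, em 460 nm; Read-out: % inhibition of Ub-AMC cleavage fluorescence; Benchmarks: no-proteasome and no-compound wells.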
An asterisk follows results filed as active; i = inactive; . = not tested or not shown. These rows are one share of the data; rates above refer to the full screens.

Every second line gives: FGF22 binding, LANA-H2A inh, ALR inh, HNF4A DNA FP, E coli growth, B2AR ag, UCH37 inh
- COc1ccc(-n2c(C)cc(SC)c(C(C)=O)c2=S)cc1
 : ., 4.3, 1, -2.0, 0.73, -8, 6.9
- CCC(C)C(NC(=O)c1ccccc1NC(=O)c1ccco1)C(=O)O (stereo unspecified)
 : ., -1.3, -16, -0.8, 0.7, 2, 2.0
- COCCN1CCCC(CNCc2cn(C)nc2-c2ccc(Oc3ccccc3)cc2)C1 (stereo unspecified)
 : i, 0.3, ., 2.9, 0.73, 10, 3.0
- CCCCCCCCNc1ncnc2[nH]ncc12
 : i, ., ., 3.0, 0.7, -14, 1.6
- CCOc1ccc(-c2cn3ccccc3n2)cc1[N+](=O)[O-]
 : i, 1.5, -1, 0.9, 0.69, -23, 4.6
- Cc1ccccc1CS(=O)(=O)CCC(=O)NCCCN1CCN(c2ccccc2F)CC1
 : ., -3.4, 8, 1.2, 0.66, -4, 33*
- COc1ccc(NC(=O)CSc2n[nH]c(=O)n2C2CC2)cc1OC
 : i, 2.1, 1, 2.9, 0.62, 0, -1.8
- Cn1c(CNC(=O)CNC(=O)Cc2ccccc2)cc(=O)n(C)c1=O
 : i, -2.4, -1, -1.0, 0.73, 2, 2.2
- O=C1/C(=C/c2cccc([N+](=O)[O-])c2)CSc2ccc(Cl)cc21
 : i, 7.8, -10, -1.1, 0.65, -24, 5.0
- CC(C(=O)Nc1ccc(C(F)(F)F)cc1)N(C)CC(=O)N1CCN(Cc2ccccc2)CC1 (stereo unspecified)
 : i, 0.6, ., -3.7, 0.68, -6, 2.7
- Nc1c(Nc2ccccc2)c2ccccc2oc1=O
 : ., -5.0, 98*, -2.1, 0.63, 8, -4.0
- O=C(Nc1ccccc1N1CCCCC1)c1ccc(Cl)cc1
 : i, 4.1, 47, 3.5, 0.7, 0, 4.8
- CCCC(C(=O)NC(C)(C)C)N(CC1CCCO1)C(=O)c1snc(C(N)=O)c1N (stereo unspecified)
 : i, -0.8, 6, -1.2, 0.71, -1, -7.3
- O=C(Cc1ccc2c(c1)OCCO2)N1CCN(S(=O)(=O)c2cccc(Cl)c2Cl)CC1
 : i, -1.8, -2, -1.1, 0.69, 2, 4.8
- CCOC(=O)N1CCN(C(=O)CSCC(=O)N=c2sc3cc(OC)ccc3n2C)CC1
 : i, ., ., 0.6, 0.69, -1, -0.5
- COc1ccc(C(=O)NC(NC(=O)c2ccc(OC)c(OC)c2)c2ccccc2F)cc1OC
 : ., -6.4, -2, 45*, 0.69, -9, 4.7
- CC(=O)Nc1ccc2nc(-c3ccccc3)cn2c1
 : i, -1.7, -251, 8.1, 0.64, -15, -81
- CCC(C)(C)NC(=O)CN(Cc1ccccc1Cl)C(=O)CCC(=O)Nc1cc(C)ccn1
 : ., 3.9, -8, -0.5, 0.65, -4, -1.5
- O=C(COC(=O)c1ccc(O)cc1O)NCCN1C(=O)CSC1=O
 : i, -2.9, -6, 0.5, 0.67, 5, 0.4
- CCOc1ccc(N(CC(N)=O)S(=O)(=O)c2ccc(F)cc2)cc1
 : ., -4.6, -3, 0.4, 0.7, -2, 3.0

An excerpt of these results, with each value named:
> COc1ccc(NC(=O)CSc2n[nH]c(=O)n2C2CC2)cc1OC
  FGF22 binding: i; LANA-H2A inh: 2.1; ALR inh: 1; HNF4A DNA FP: 2.9; E coli growth: 0.62; B2AR ag: 0; UCH37 inh: -1.8
> Cn1c(CNC(=O)CNC(=O)Cc2ccccc2)cc(=O)n(C)c1=O
  FGF22 binding: i; LANA-H2A inh: -2.4; ALR inh: -1; HNF4A DNA FP: -1.0; E coli growth: 0.73; B2AR ag: 2; UCH37 inh: 2.2
> O=C1/C(=C/c2cccc([N+](=O)[O-])c2)CSc2ccc(Cl)cc21
  FGF22 binding: i; LANA-H2A inh: 7.8; ALR inh: -10; HNF4A DNA FP: -1.1; E coli growth: 0.65; B2AR ag: -24; UCH37 inh: 5.0
> CC(C(=O)Nc1ccc(C(F)(F)F)cc1)N(C)CC(=O)N1CCN(Cc2ccccc2)CC1 (stereo unspecified)
  FGF22 binding: i; LANA-H2A inh: 0.6; ALR inh: .; HNF4A DNA FP: -3.7; E coli growth: 0.68; B2AR ag: -6; UCH37 inh: 2.7

Other structures follow:
Every second line gives: FGF22 binding, LANA-H2A inh, ALR inh, HNF4A DNA FP, E coli growth, B2AR ag, UCH37 inh
- Cc1ccc2oc(=O)c3cnn(CC(=O)N4CCCCCC4)c3c2c1
 : i, 0.5, 0, -2.3, 0.77, 1, 2.9
- OC(CN1C2=NCCN2c2ccccc21)c1ccc2c(c1)OCO2 (stereo unspecified)
 : ., -3.8, 6, 3.2, 0.7, 5, 3.1
- O=c1[nH]cnc2c1oc1ccccc12
 : ., -1.1, ., 1.3, 0.66, 12, 4.9
- Cc1cc(C(=O)N/N=C/c2cccn2C)n[nH]1
 : i, -6.8, ., 0.5, ., -3, .
- Cc1cc(NC(=O)CSc2nnc(C)o2)no1
 : i, 5.4, -7, -0.7, 0.7, -4, -1.8
- CCN(Cc1cc2cc(C)ccc2[nH]c1=O)C(=O)c1cccc(OC)c1
 : ., -2.6, -8, -2.0, 0.64, -2, -12
- CCOC(=O)c1c(-c2cccs2)csc1N
 : ., -0.8, 11, 4.7, 0.68, 1, 2.9
- C#CCOCCOCCOCCNc1nc(N2CCOCC2)nc(N2CCN(C(=O)[C@H](CCCCN)n3cc([C@@H](N)C(C)CC)nn3)CC2)n1 (stereo partly specified)
 : i, 1.1, ., 0.6, ., 5, 3.6
- CCN1CCN(c2ccc(S(=O)(=O)N3CCCCC3)cc2NC(=O)Cc2ccc(Cl)c(Cl)c2)CC1
 : ., 9.1, -13, 4.5, 0.64, 25, -0.7
- CN(C)c1ccc(-c2cc3ccccc3c(=O)o2)cc1
 : i, 5.3, 12, 7.8, 0.7, -3, -32
- CC1CCCC(C)N1C(=O)COC(=O)c1cc(S(=O)(=O)N2CCOCC2)ccc1Cl (stereo unspecified)
 : i, 1.3, 0, -0.7, 0.67, 2, 0.5
- COc1ccc(/C(N)=N/OC(=O)CSc2ccc(C)cc2)cc1
 : ., -5.7, -7, 0.4, 0.7, 3, -0.1
- COc1cc(C2=NOC(C(=O)N3CCCCCC3)C2)cc(OC)c1OC (stereo unspecified)
 : ., 8.0, -14, -2.2, 0.66, -3, 0.6
- OCCC1CN(Cc2ccc3cccc(F)c3n2)CCN1Cc1ccccc1 (stereo unspecified)
 : i, -4.3, 1, 2.1, 0.65, -3, 0.4
- COc1ccc2c(c1)OC[C@H]1[C@H]2N2C(=O)c3cc(C)ccc3NC(=O)[C@@]2(C)[C@H]1c1ccccc1
 : ., 6.3, 0, -2.7, ., 2, .
- Nc1ccc2nc(SCC(=O)c3ccccc3)sc2c1
 : i, 3.9, 41, 2.9, 0.61, 7, 5.0
- Cc1cccc(NC(=O)CN(C)S(=O)(=O)c2ccc3c(c2)n(C)c(=O)c(=O)n3C)c1C
 : i, 2.3, 0, 5.1, 0.63, -7, -2.2
- CCN(C(=O)CSc1ncnc2c1cnn2-c1ccccc1)C1CCS(=O)(=O)C1 (stereo unspecified)
 : i, -9.5, 8, 0.5, 0.63, -7, 1.7
- CCc1ccccc1N1CC(C(=O)Nc2nccs2)CC1=O (stereo unspecified)
 : i, 2.1, -11, -0.6, 0.67, -7, 6.3
- CN1CCN(C(=O)c2cc3ccccc3[nH]2)CC1
 : i, 4.8, -39, 3.5, 0.67, -1, 2.0
- O=C(c1ccccc1)c1ccc(O)c(O)c1O
 : i, ., ., -21, ., 4, .
- COc1ccccc1NC(=O)COC(=O)Cc1c[nH]c2ccccc12
 : i, -6.6, 8, 0.3, 0.72, 6, -1.3
- CC(C)(C)C(=O)/C=C(N)/C=C/c1ccccc1
 : ., -3.0, 6, 2.8, 0.67, -3, 3.3
- COc1ccccc1CN1[C@@H](CC(=O)O)c2cc(F)ccc2S1(=O)=O
 : i, -6.8, 26, -2.3, ., 5, -2.0
- COCCNC(=O)c1ccc(CS(=O)(=O)c2ccccc2)o1
 : ., -0.7, -8, -1.6, 0.7, -1, 4.3
- CC(C)C[C@H]1CN([C@@H](Cc2ccc(O)cc2)CN2CCC[C@@H]2CN2C(=O)C(=O)NC[C@@H]2Cc2ccccc2)C(=O)C(=O)N1CC1CCCCC1
 : i, ., ., -0.5, ., 6, .
- Clc1ccccc1N=C1NN=C(c2cccs2)CS1
 : i, 1.5, 20, 3.1, 0.69, -2, 2.0
- Cc1ccc(S(=O)(=O)N(C)CC(=O)Nc2nc3ccccc3s2)cc1
 : ., -0.7, -7, 3.3, 0.65, -8, 1.3
- CC1=C(C(=O)Nc2ccccc2)C(c2ccccn2)n2nc(CCCO)nc2N1 (stereo unspecified)
 : i, -0.2, ., -0.9, 0.7, 0, 4.2
- CC(C)(C)NC(=O)C(=O)NN=C1CCCCCCCCCCC1
 : i, -8.3, -4, 4.7, 0.64, -1, -0.2
- Cc1c(C)c2ccc(OC3CCCCC3=O)cc2oc1=O (stereo unspecified)
 : ., 0.6, -5, 4.0, 0.67, -9, -132
- COc1ccc(Cc2nc(=S)[nH][nH]2)cc1Br
 : i, -1.2, 57, -1.7, 0.65, -1, -1.7
- Cc1cc(NC(=O)c2sc(Nc3ccc(F)cc3)nc2N)no1
 : i, 3.0, 97*, 2.1, ., 7, .
- COc1ccc(-n2nnnc2/C(=C/N(C)C)C(=O)c2ccccc2)cc1
 : i, 8.1, 1, 3.9, 0.7, -6, 6.1
- C=CCn1c(SC(C)C#N)nc2sc(CC)cc2c1=O (stereo unspecified)
 : i, 5.7, -6, 3.4, 0.72, -7, 0.3
- COCCNC(=O)CCC(=O)NNc1nc2ccccc2c2nc(-c3ccccc3)nn12
 : i, -0.7, 12, -0.4, 0.69, -1, 5.0
- Cc1cc(NC(=O)c2ccno2)no1
 : i, 3.7, -1, -1.1, 0.65, -3, 2.7
- CC(=O)N1CC[n+]2c(-c3ccc(Cl)cc3)csc21
 : i, 0.1, 99*, -0.4, 0.66, 9, 0.9
- CCO/C=C1\C(=O)N(CC)c2ccccc21
 : ., -9.5, ., 1.6, 0.66, 5, 1.8
- O=C(NC1CCCCCCC1)c1cccc(Cl)c1
 : i, 0.3, ., 0.6, 0.67, -9, 1.3
- COc1ccc(C(=O)NNC(=O)c2ccccc2[N+](=O)[O-])cc1
 : ., -0.6, -8, -1.4, 0.73, -5, 4.3
- COc1ccccc1Nc1nnc(SCC(=O)c2cc(C)n(CC3CCCO3)c2C)s1 (stereo unspecified)
 : ., -8.6, 2, 3.0, 0.72, -2, 1.9
- C[C@H](CO)N1C[C@H](C)[C@@H](CN(C)S(=O)(=O)c2ccccc2)Oc2ccc(NC(=O)Nc3ccccc3)cc2C1=O
 : i, -4.8, ., 2.1, 0.68, 16, 2.2
- Cc1ccn2c(CNC(C)CCn3cccn3)c(C(=O)N3CCCCCC3)nc2c1 (stereo unspecified)
 : i, 1.2, -2, -1.9, 0.64, -5, 5.7

Quoted from above, three compounds:
Every second line gives: FGF22 binding, LANA-H2A inh, ALR inh, HNF4A DNA FP, E coli growth, B2AR ag, UCH37 inh
- C#CCOCCOCCOCCNc1nc(N2CCOCC2)nc(N2CCN(C(=O)[C@H](CCCCN)n3cc([C@@H](N)C(C)CC)nn3)CC2)n1 (stereo partly specified)
 : i, 1.1, ., 0.6, ., 5, 3.6
- CCN1CCN(c2ccc(S(=O)(=O)N3CCCCC3)cc2NC(=O)Cc2ccc(Cl)c(Cl)c2)CC1
 : ., 9.1, -13, 4.5, 0.64, 25, -0.7
- CN(C)c1ccc(-c2cc3ccccc3c(=O)o2)cc1
 : i, 5.3, 12, 7.8, 0.7, -3, -32

Screening data (PubChem)
